# High-throughput results as filed in PubChem.
# Ecoli growth = E. coli growth inhibition; Escherichia coli growth, OD600, 23 h; stronger effect = lower value; OD600 absorbance (concentration not given with the values); hit rate 0.21% among 330,000; AID 1053175;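 active = OD600 absorbance below the run mean of sample wells minus 3.6 SD, in any replicate, cut at about 0.56 in these data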;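 also: stock transfer was 300 nL into about 60 µL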
# B2AR ag = activates human beta-2 adrenergic receptor causing internalization | Am2.2-beta2AR cells, FAP receptor internalization, flow cytometry; reference of the scale not given here | hit rate 0.43% among 340,000 | response, % (test concentration not listed);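 active = response above a set limit, near 3 SD of response in nonfluorescent compounds, cut at about 42% in these data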;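 also: stock transfer was 100 nL into about 11 µL; a reference agonist was the positive control; negative values mostly stem from fluorescent compounds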
# HNF4A DNA FP = change in binding of human HNF4 alpha to DNA; hit rate 0.3% among 360,000; HNF4a-FITC DNA binding, fluorescence polarization, 1 h; AID 1224865; activity change, % at 10 µM; in the data active = activity change above about 30%, passing the limit was not always enough;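 also: controls were the assay level and a saturating level of protein; the project sought stronger binding though the title names inhibitors; some compounds called inactive have numbers as strong as hits; positive values seem to mean higher polarization but the record does not say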
# LANA-H2A inh = blocks KSHV LANA binding to histone H2A/H2B | hit rate 0.6% among 320,000 | AID 2629 | cell-free LANA-H2A/H2B peptide, fluorescence polarization | inhibition, % (concentration not given with the values) | Q9QR71; in the data active = inhibition mostly above about 10%, no sharp cut-off; inactive = mostly below about 6.7%;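 also: stock transfer was 7.5 nL into about 10 µL; 0% = median of vehicle wells and 100% = median of positive control wells; one replicate is shown; the record names a cut of 25% in any replicate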
# Target sequence (Q9QR71 whole entry, looked up): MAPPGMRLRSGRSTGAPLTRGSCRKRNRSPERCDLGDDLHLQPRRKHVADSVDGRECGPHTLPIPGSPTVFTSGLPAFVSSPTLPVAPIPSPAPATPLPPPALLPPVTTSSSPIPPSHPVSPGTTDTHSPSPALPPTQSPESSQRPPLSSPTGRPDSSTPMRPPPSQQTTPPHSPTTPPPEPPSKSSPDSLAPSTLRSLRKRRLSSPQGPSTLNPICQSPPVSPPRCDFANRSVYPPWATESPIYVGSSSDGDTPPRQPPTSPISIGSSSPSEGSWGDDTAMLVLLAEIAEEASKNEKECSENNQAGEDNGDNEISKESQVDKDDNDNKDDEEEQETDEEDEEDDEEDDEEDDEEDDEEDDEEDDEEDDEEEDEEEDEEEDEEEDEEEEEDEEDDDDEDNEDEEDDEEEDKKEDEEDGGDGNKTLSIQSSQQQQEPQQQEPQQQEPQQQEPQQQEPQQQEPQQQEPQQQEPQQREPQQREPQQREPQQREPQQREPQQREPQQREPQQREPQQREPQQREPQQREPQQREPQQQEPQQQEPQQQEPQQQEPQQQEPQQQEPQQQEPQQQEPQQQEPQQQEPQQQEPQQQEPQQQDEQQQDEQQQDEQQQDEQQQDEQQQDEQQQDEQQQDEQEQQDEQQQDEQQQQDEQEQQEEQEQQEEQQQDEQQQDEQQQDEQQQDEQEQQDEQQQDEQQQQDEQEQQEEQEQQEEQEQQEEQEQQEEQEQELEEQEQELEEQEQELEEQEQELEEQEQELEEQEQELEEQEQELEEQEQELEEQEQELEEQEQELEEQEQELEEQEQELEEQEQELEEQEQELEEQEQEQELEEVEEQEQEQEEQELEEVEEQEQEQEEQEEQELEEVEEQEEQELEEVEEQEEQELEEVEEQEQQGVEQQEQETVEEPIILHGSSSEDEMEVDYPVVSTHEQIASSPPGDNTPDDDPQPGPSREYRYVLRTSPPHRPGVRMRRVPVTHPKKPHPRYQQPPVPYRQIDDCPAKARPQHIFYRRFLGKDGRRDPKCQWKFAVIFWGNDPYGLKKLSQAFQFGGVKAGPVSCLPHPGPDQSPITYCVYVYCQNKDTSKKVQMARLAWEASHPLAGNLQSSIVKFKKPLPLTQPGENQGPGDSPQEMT
# Vif A3G = inhibitors of Vif binding to APOBEC3G peptide, primary screen, biochemical, TR-FRET, GST-Vif 1-94, biotin-A3G peptide, dose response retest (AID 1117319); one-dose inhibition, %; IC50 in µM for titrated hits; hit rate 0.57% among 260,000; TR-FRET GST-Vif / biotin-A3G peptide binding; higher % means a stronger effect; test concentration not given here; strong numbers were not always called active;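 active = above the screen mean plus three standard deviations and confirmed in dose response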;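 also: Vif residues 1-94 fused to GST binding biotinylated APOBEC3G peptide 110-148; 0% = full assay without inhibitor and 100% = GST in place of GST-Vif; retest series ran down from 100 µM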
# UCH37 DUB inh = human UCH37 deubiquitinating enzyme inhibition. Q9Y5K5. purified proteasome/UCH37, Ub-AMC cleavage fluorescence. inhibition, % (no concentration beside the values). hit rate 0.33% among 330,000. AID 588478;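 active = mean of two replicates above 20%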;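 also: 0% = compound-free wells with enzyme and 100% = wells lacking proteasome; stock transfer was 100 nL into about 20 µL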
#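 Assay system: Proteasome-bound UCH37. Buffer or medium: pH 7.4 Tris-HCl (50 mM) with ovalbumin, ATP-MgCl2, DTT. Incubation: 30 min preincubation with enzyme, 25 min cleavage at room temperature. Measured by: fluorescence, ex 355 nm, em 460 nm. Read-out basis: percent inhibition. Control set: wells without proteasome as full block, compound-free enzyme plus substrate as uninhibited.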
# A1 inh = inhibitors of the anti-apoptotic protein A1, read as caspase activation; MEF A1-2A-BIM cells, Caspase-Glo 3/7 luminescence, 3 h; percent of clofoctol response, vehicle zero; caspase activation, % (test concentration not listed); hit rate 0.066% among 330,000;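 active = over half of replicate activation scores above 10%, or exactly half above 10 with the replicate mean above 10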;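 also: wells of about 30 µL received 50 nL stock; many hits fall short of the cut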
# Active calls of the source: *; · = not tested or not shown.
[1] Cc1cc(C)nc(SCc2c(F)cccc2Cl)n1
[2] O=C(O)CNC(=O)c1ccc(OC(F)F)cc1
[3] O=C(CNCc1ccccc1Cl)Nc1cc(S(=O)(=O)N2CCOCC2)ccc1Cl
[4] c1ccc(CNC2CC3CCC2C3)cc1 (stereo not drawn)
[5] CC(=O)N1c2ccc3ccccc3c2C(C)CC12CCCCC2 (stereo not drawn)
[6] CN(C)C(=O)CCc1ccc2c3c([nH]c2c1)[C@]1(CCc2ccccc2)[C@@H](C(=O)N2CCCCC2)C[C@H](CC(=O)NC(C)(C)C)C(=O)N1CC3

Compound,1,2,3,4,5,6
Ecoli growth,0.62,0.72,0.63,0.68,0.71,0.66
B2AR ag,-15,1,10,10,2,-4
HNF4A DNA FP,-2.8,3.8,-1.2,-1.1,-2.7,1.6
LANA-H2A inh,1.7,-2.1,0.8,·,-2.3,·
Vif A3G,-3%,-2%,·,-9%,2%,-1%
UCH37 DUB inh,3.2,-1.0,1.3,-0.7,2.7,1.2
A1 inh,-0.3,1.8,1.4,·,-0.1,·

[7] Cc1ccccc1C(=O)NN1C(=O)CSC1=S
[8] O=C(CCCN1C(=O)c2cccc3cccc(c23)C1=O)N1CCN(c2ccc(F)cc2)CC1
[9] Cc1nc2sccn2c(=O)c1S(=O)(=O)N1CCN(c2cccc(C(F)(F)F)c2)CC1
[10] C#CCOCCOCCOCCNc1nc(N2CCN(C(=O)C([C@@H](C)CC)n3cc(C(N)CO)nn3)CC2)nc(N2CCN(C(=O)C([C@@H](C)CC)n3cc(C(N)COC(=O)C(F)(F)F)nn3)CC2)n1 (stereo partly drawn)
[11] CCOc1ccc(CN(C)CC(=O)NCc2ccccc2Cl)cc1
[12] CN(C)CCCNc1oc(-c2ccccc2Cl)nc1S(=O)(=O)c1ccccc1

Compound,7,8,9,10,11,12
Ecoli growth,0.64,0.68,0.61,·,0.67,0.66
B2AR ag,6,7,0,·,4,7
HNF4A DNA FP,0.6,-4.8,-6.5,·,2.2,0.5
LANA-H2A inh,1.0,3.3,1.8,1.3,-12,-0.3
Vif A3G,0%,-10%,·,·,0%,15%
UCH37 DUB inh,2.1,-5.3,2.4,8.3,3.3,4.8
A1 inh,0.1,-0.2,0.9,0.4,1.0,2.2

[13] COc1ccc(OC)c(NC(=O)CCNC(=O)c2ccco2)c1
[14] CC(C)Oc1cccc(C(=O)Nc2ccc(N3CCN(S(C)(=O)=O)CC3)cc2)c1
[15] Cn1c(=O)[nH]c(=O)c2c1nc(N1CCC(Cc3ccccc3)CC1)n2Cc1ccccc1
[16] CC(=O)Nc1ccc(S(=O)(=O)NCCC(=O)Nc2ncccc2C)cc1
[17] NC(=O)c1ccc(NC(=O)COC(=O)/C=C/c2cccs2)cc1
[18] Cc1ccc(C(=O)c2c3ccccc3[n+]([O-])n2CCO)cc1

Compound,13,14,15,16,17,18
Ecoli growth,0.71,0.67,0.74,0.68,·,0.65
B2AR ag,-7,-9,11,-6,3,-3
HNF4A DNA FP,-0.6,0.1,-2.1,-2.6,2.1,5.9
LANA-H2A inh,-1.4,7.4,-4.2,-0.3,1.7,0.2
Vif A3G,·,-1%,6%,-2%,5%,·
UCH37 DUB inh,2.2,-0.8,5.6,1.6,0.6,5.7
A1 inh,0.2,0.0,0.1,0.8,0.5,0.7

[19] O=C(CSc1nc2ccc(Nc3nc(N4CCOCC4)nc(N4CCOCC4)n3)cc2s1)Nc1ccccc1Cl
[20] COc1ccc(S(=O)(=O)n2nc(OC(=O)c3ccccc3)cc2N)cc1
[21] Cc1ccc2nc3c(c(C(=O)OCC(=O)NC4CCS(=O)(=O)C4)c2c1)CCCC3 (stereo not drawn)
[22] Cc1nnc(SCC(=O)NCC2CCCO2)n1Cc1ccccc1 (stereo not drawn)
[23] CC(C)(C)CN1C(N)=NC[C@@H]1c1ccccc1
[24] OC1(CN2CCOCC2)C2CN3CCN(C2)CC1(c1ccccc1)C3 (stereo not drawn)

Compound,19,20,21,22,23,24
Ecoli growth,0.7,0.69,0.63,0.68,·,0.71
B2AR ag,13,3,1,0,5,22
HNF4A DNA FP,3.0,0.7,-0.9,1.3,-4.9,0.8
LANA-H2A inh,-1.2,-0.8,-3.0,-0.3,2.2,-0.3
Vif A3G,9%,21%,-6%,4%,·,4%
UCH37 DUB inh,-0.9,1.9,-33,2.0,0.9,0.1
A1 inh,0.3,-1.1,0.5,-1.0,0.3,1.2

# 3 entries already listed, sorted by formula weight, high to low.
[19] O=C(CSc1nc2ccc(Nc3nc(N4CCOCC4)nc(N4CCOCC4)n3)cc2s1)Nc1ccccc1Cl
[22] Cc1nnc(SCC(=O)NCC2CCCO2)n1Cc1ccccc1 (stereo not drawn)
[23] CC(C)(C)CN1C(N)=NC[C@@H]1c1ccccc1

Compound,19,22,23
Ecoli growth,0.7,0.68,·
B2AR ag,13,0,5
HNF4A DNA FP,3.0,1.3,-4.9
LANA-H2A inh,-1.2,-0.3,2.2
Vif A3G,9%,4%,·
UCH37 DUB inh,-0.9,2.0,0.9
A1 inh,0.3,-1.0,0.3

# The listing continues:
[25] Cc1cc(NCCOCCO)n2ncc(-c3ccc(Cl)cc3)c2n1
[26] COc1ccc(-c2c(C)n([O-])c(C)c(C)[n+]2=O)cc1
[27] Cc1ccccc1C(=O)NC1CCN(C(=O)N(c2ccccc2)c2ccccc2)CC1
[28] Cc1ccc(C(=O)Nn2c(O)c(C=C3N=c4ccccc4=N3)sc2=S)cc1
[29] CCN1CCN(c2ccc(NC(=O)c3cccc(F)c3)cc2Cl)CC1
[30] O=C1C=C(c2ccc3ccccc3c2)C[C@@H](c2ccc(Cl)cc2)C1

Compound,25,26,27,28,29,30
Ecoli growth,0.69,0.72,0.73,0.72,0.67,·
B2AR ag,1,0,7,6,2,-8
HNF4A DNA FP,3.3,-0.3,1.4,-3.7,1.4,-5.5
LANA-H2A inh,1.9,0.1,-0.7,1.9,0.6,11
Vif A3G,-5%,1%,-3%,0%,·,·
UCH37 DUB inh,-71,·,4.0,5.8,-0.3,2.5
A1 inh,-0.6,0.8,0.9,1.1,-2.4,0.7

[31] O=C(Nc1cccc(C(F)(F)F)c1)C1=CC=CN2CCS(=O)(=O)N=C12
[32] CCOC(=O)CC(=O)CSc1ncc(C(=O)OCC)c(N)n1
[33] O=C(NCCCCCCNC(=O)c1ccc(Br)s1)c1ccc(Br)s1
[34] C=CCc1cccc(CNc2cnc3ccccc3c2)c1O
[35] COc1ccccc1N1CCN(c2nc3ccccc3nc2C(C#N)C(=O)OC(C)C)CC1 (stereo not drawn)

Compound,31,32,33,34,35
Ecoli growth,0.68,0.73,0.76,0.64,0.75
B2AR ag,0,7,-10,5,-6
HNF4A DNA FP,4.7,0.7,2.3,2.6,5.2
LANA-H2A inh,0.5,-4.0,-2.7,3.8,-4.5
Vif A3G,-8%,69%,-25%,10%,11%
UCH37 DUB inh,2.9,5.1,2.1,-59,4.8
A1 inh,-0.3,-0.2,1.4,-0.6,0.7

# Looked up one by one from the list above (three):
[34] C=CCc1cccc(CNc2cnc3ccccc3c2)c1O
[33] O=C(NCCCCCCNC(=O)c1ccc(Br)s1)c1ccc(Br)s1
[31] O=C(Nc1cccc(C(F)(F)F)c1)C1=CC=CN2CCS(=O)(=O)N=C12

Compound,34,33,31
Ecoli growth,0.64,0.76,0.68
B2AR ag,5,-10,0
HNF4A DNA FP,2.6,2.3,4.7
LANA-H2A inh,3.8,-2.7,0.5
Vif A3G,10%,-25%,-8%
UCH37 DUB inh,-59,2.1,2.9
A1 inh,-0.6,1.4,-0.3

# Complete entries from above:
# O=C(O)CNC(=O)c1ccc(OC(F)F)cc1 reads Ecoli growth: 0.72; B2AR ag: 1; HNF4A DNA FP: 3.8; LANA-H2A inh: -2.1; Vif A3G: -2%; UCH37 DUB inh: -1.0; A1 inh: 1.8
# CN(C)C(=O)CCc1ccc2c3c([nH]c2c1)[C@]1(CCc2ccccc2)[C@@H](C(=O)N2CCCCC2)C[C@H](CC(=O)NC(C)(C)C)C(=O)N1CC3 reads Ecoli growth: 0.66; B2AR ag: -4; HNF4A DNA FP: 1.6; LANA-H2A inh: ·; Vif A3G: -1%; UCH37 DUB inh: 1.2; A1 inh: ·
# CCOC(=O)CC(=O)CSc1ncc(C(=O)OCC)c(N)n1 reads Ecoli growth: 0.73; B2AR ag: 7; HNF4A DNA FP: 0.7; LANA-H2A inh: -4.0; Vif A3G: 69%; UCH37 DUB inh: 5.1; A1 inh: -0.2
